PMP22 txn = modulators of PMP22 gene transcription in S16 Schwann cells | S16 Pmp22-F2sN Schwann cells (luciferase reporters placed in the Pmp22 gene), FLuc/NLuc coincidence luminescence, 24 h | Potency, µM (titrated, usually from 57.5 µM), for the others: top-dose activity change, negative = inhibition, actives largely listed as inhibitors | 2% of 43,000 active; active = clear falling dose curves in both reporters; inconclusive = both reporters move, but less clearly or upward; inactive = either reporter flat; the % is the NLuc reporter signal; also: % is scaled to controls: 0 for no effect and ±100 for the full control effect; some results filed as inactive show a strong effect at the top dose
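Transcriptional readout in edited S16(c9) cells: two luciferases reported from the Pmp22 locus, measured in turn after 24 h compound incubation.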
HTT promoter inh = inhibitors of huntingtin promoter activity; HEK293 HTT promoter firefly luciferase reporter (activity 0% = vehicle and -100% = no light), 24 h; Potency, µM (doses to about 57.5 µM), without a hit: at the top dose activity change, negative = inhibition, usual class: inhibitors; 0.93% of 48,000 active; AID 1508623; active = well fitted inhibition curve with a large enough effect; inconclusive = small, poorly fitted or top-dose-only effect; inactive = no such curve, though single readings can be large or run the other way; also: nearly all actives have a fitted effect of over 50% in size
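Firefly luciferase signal from promoter-reporter HEK293 cells was scaled between vehicle (0%) and zero RLU (-100%). Compounds were tested at final concentrations of up to 57.5 uM over 24 h at 37 degrees C. PTC124 at 50 uM final served as control inhibitor.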
* hit, by the source's call; ? = inconclusive; nt = not tested or not shown; & = joins results of further samples; [ ] = remark or other dose. Potency is read from the fitted curve at half-maximal effect. Not all compounds are listed. The share of hits here may be higher or lower than overall.

1: CCNC(=O)c1noc(-c2cc(C(C)C)c(O)cc2O)c1-c1ccc(CN2CCOCC2)cc1
2: COc1ccccc1N1CCN(CC(O)COc2ccc(C)cc2C(C)(C)C)CC1 (configuration not stated)
3: COc1ccccc1CNC(=O)Cn1c(=O)oc2ccccc21
4: CCC1(C)CC(=O)NC1=O (configuration not stated)
5: Cc1csc2nc(-c3cccc(NC(=O)c4cccc(F)c4)c3)cn12
6: COc1cccc(NC(c2nnc(-c3ccccc3)o2)c2ccc(F)cc2Cl)c1 (configuration not stated)

Compound,1,2,3,4,5,6
PMP22 txn,nt,?,5.3%,nt,?,1.6%
HTT promoter inh,?,?,14.9%,-7.6%&7.6%,-14.6%,?

7: CCc1ccccc1NC(=O)Cn1nc(C)c2nn(-c3ccc(Cl)cc3)c(C)c2c1=O
8: COCCCNC(=O)c1ccc2c(c1)nc(C)n2-c1cccc(C)c1
9: COc1ccc(NC(=O)c2cc(C3CC3)nc3c2c(C)nn3-c2ccccc2)c(OC)c1
10: CCOCCn1ccc2c(OCC(=O)Nc3ccc(C(N)=O)cc3)cccc2c1=O
11: Cc1ccc(NC(=O)CN2C(=O)CCc3ccccc32)cc1C
12: Cc1ccccc1NC(=O)Cn1nnc(C(=O)NCCc2ccccc2)c1N

Compound,7,8,9,10,11,12
PMP22 txn,-4.9%,5.5%,-22.1%,0.2%,10.1%,-4.6%
HTT promoter inh,?,-21.8%,-11.9%,0.0%,-17.6%,-2.6%

13: CS(=O)(=O)N1CCc2cc(C(=O)N3CCN(c4cccc(Cl)c4)CC3)ccc21
14: Cc1cc(C)c(NC(=O)C2CCN(C(=O)N3CC(C)Oc4ccc(Cl)cc43)CC2)c(C)c1 (configuration not stated)
15: Cc1ccc(CN(Cc2ccco2)C(=O)c2ccc(Cl)cc2)o1
16: O=C(Nc1ccc(-c2nc3ccccc3o2)c(O)c1)c1ccccc1
17: COc1ccc(-c2nc3ccc(NS(=O)(=O)c4ccc(C)cc4)cc3o2)cc1
18: COc1ccccc1CNC(=O)CSC1=Nc2ccccc2N=C(c2ccc(F)cc2)C1

Compound,13,14,15,16,17,18
PMP22 txn,-32.7%,-25.9%,1.2%,?,-3.2%,?
HTT promoter inh,?,?,-35.3%,62.4%[activator],-15.6%,-18.0%

19: Cc1ccccc1C(=O)Nc1nc2nc(C)c(C)c(=O)n2[nH]1
20: CCOC(=O)c1cccc(NC(=O)N2Cc3ccccc3Oc3ncccc32)c1
21: CCOc1ccc(-c2nc3ccccc3c(=O)o2)cc1
22: COCCc1nn2c(=O)cc(COC(=O)COc3ccccc3C)nc2s1
23: CC1=C(c2ccc(Cl)cc2)S(=O)(=O)N=C1N1CCN(c2cccc(C)c2)C(C)C1 (configuration not stated)
24: COCCCNC(=O)CCn1c(=O)c2ccccc2n(CC(=O)Nc2cc(Cl)ccc2OC)c1=O

Compound,19,20,21,22,23,24
PMP22 txn,-4.6%,19.5%,-14.9%,-34.8%,?,-3.5%
HTT promoter inh,-0.9%,?,72.2%[activator],-5.5%,?,-5.3%

Part of the list above, with tabs:
entry	mol	PMP22 txn	HTT promoter inh
21	CCOc1ccc(-c2nc3ccccc3c(=O)o2)cc1	-14.9%	72.2%[activator]
22	COCCc1nn2c(=O)cc(COC(=O)COc3ccccc3C)nc2s1	-34.8%	-5.5%

Continued:
25: COc1ccc(-n2nc3c(N4CCCC(C(=O)NCc5cccc(F)c5)C4)nnc(C)c3c2C)cc1 (configuration not stated)
26: CC(=O)c1ccc(NC(=O)CCc2c(C)nc3c(c(C)nn3-c3ccc(C)cc3)c2C)cc1
27: Cc1ccc(CNC(=O)NCc2noc3ccc(C)cc23)cc1
28: CC1=C(C(=O)Nc2cccc(Cl)c2)C2(CCCCCC2)OC1=O
29: Cc1ccc(NC(=O)CN2C(=O)COc3ccc(S(=O)(=O)N4CCCCCC4)cc32)cc1C
30: COc1cccc(C(=O)Nc2cccc(C(=O)OCc3cc(=O)n4nc(C5CC5)sc4n3)c2)c1

Compound,25,26,27,28,29,30
PMP22 txn,?,?,1.4%,-3.1%,-27.5%,-11.2%
HTT promoter inh,-29.0%,32.8%[activator],-3.1%,-30.2%,?,-3.9%

31: Cc1c(NS(C)(=O)=O)cccc1-c1nc2ccccc2s1
32: O=C(NCC(c1ccccc1)c1ccccc1)c1nn(-c2ccccc2F)nc1CO
33: CCCN1C[C@H](CSC)C[C@@H]2c3cccc4[nH]cc(c34)C[C@H]21
34: COc1ccc(CNC(=O)CCCN2C(=O)CCn3nc(-c4cn(C)c5ccccc45)cc32)cc1
35: CCOC(=O)c1cnc2ccc(Cl)cc2c1Nc1ccc(OCC)cc1
36: COc1ccccc1CNC(=O)CCCN1C(=O)CCn2nc(-c3cn(C)c4ccccc34)cc21

Compound,31,32,33,34,35,36
PMP22 txn,?,-4.9%,nt,-6.9%,0.2%,2.0%
HTT promoter inh,?,3.98µM*,-8.0%,-23.3%,-40.2%,-12.1%

37: Cc1ccc(NC(=O)CCS(=O)(=O)c2ccc(Br)cc2)c(C)c1
38: O=C(COc1ccccc1)N(Cc1cccnc1)c1nc2ccc(F)cc2s1
39: CCc1ccc(O)c(C(=O)c2cnc3cc(-c4ccc(C)cc4)nn3c2)c1
40: COCCCNC(=O)CSc1nc2ccccc2c(=O)n1Cc1ccco1
41: CCOc1ccc(OCC)c(Nc2nc3ccccc3n3nnnc23)c1
42: CCn1ccc2c(OCC(=O)Nc3ccccc3C(F)(F)F)cccc2c1=O

Compound,37,38,39,40,41,42
PMP22 txn,-3.0%,-27.3%,-18.4%,?,-3.7%,18.9µM*
HTT promoter inh,-26.5%,22.7%,-1.1%,5.3%,-15.9%,?

43: CCc1ccccc1NC(=O)Nc1nnc(N(CC)c2ccccc2)s1
44: Cc1cccc(N2C(=O)CSC23C(=O)N(CC(=O)Nc2cccc(Cl)c2)c2ccccc23)c1 (configuration not stated)
45: CN(C(=O)C1=CC(c2ccc3c(c2)OCO3)=NS(=O)(=O)N1C)c1ccccc1
46: CC(=O)NCCC(=O)N[C@@H](CCC(N)=O)C(=O)N[C@@H](CO)C(=O)N[C@@H](CCC(N)=O)C(=O)N[C@@H](CCC(N)=O)C(=O)N[C@H](C(=O)N[C@@H](Cc1ccccc1)C(=O)N[C@]1(C)CCCCCCC=CCCC[C@@](C)(C(=O)N[C@@H](CCC(N)=O)C(=O)N[C@@H](CC(N)=O)C(N)=O)NC(=O)[C@H](CC(C)C)NC(=O)[C@H](CC(C)C)NC(=O)[C@@H](CCCNC(=N)N)NC(=O)[C@H](Cc2c[nH]c3ccccc23)NC(=O)[C@H](CC(C)C)NC(=O)[C@H](CC(N)=O)NC1=O)[C@H](C)O
47: Cc1cc(SCc2sc(-c3ccc(C(F)(F)F)cc3)nc2C)ccc1OCC(=O)O
48: COc1ccc(Cl)cc1NS(=O)(=O)c1cc(-c2cc(C)no2)ccc1C

Compound,43,44,45,46,47,48
PMP22 txn,11.3%,?,-6.4%,nt,nt,-9.2%
HTT promoter inh,-17.5%,?,-15.6%,-19.2%,14.0%,?

Twelve entries out of the list, arranged by number of heavy atoms, high to low:
46: CC(=O)NCCC(=O)N[C@@H](CCC(N)=O)C(=O)N[C@@H](CO)C(=O)N[C@@H](CCC(N)=O)C(=O)N[C@@H](CCC(N)=O)C(=O)N[C@H](C(=O)N[C@@H](Cc1ccccc1)C(=O)N[C@]1(C)CCCCCCC=CCCC[C@@](C)(C(=O)N[C@@H](CCC(N)=O)C(=O)N[C@@H](CC(N)=O)C(N)=O)NC(=O)[C@H](CC(C)C)NC(=O)[C@H](CC(C)C)NC(=O)[C@@H](CCCNC(=N)N)NC(=O)[C@H](Cc2c[nH]c3ccccc23)NC(=O)[C@H](CC(C)C)NC(=O)[C@H](CC(N)=O)NC1=O)[C@H](C)O
34: COc1ccc(CNC(=O)CCCN2C(=O)CCn3nc(-c4cn(C)c5ccccc45)cc32)cc1
30: COc1cccc(C(=O)Nc2cccc(C(=O)OCc3cc(=O)n4nc(C5CC5)sc4n3)c2)c1
29: Cc1ccc(NC(=O)CN2C(=O)COc3ccc(S(=O)(=O)N4CCCCCC4)cc32)cc1C
32: O=C(NCC(c1ccccc1)c1ccccc1)c1nn(-c2ccccc2F)nc1CO
47: Cc1cc(SCc2sc(-c3ccc(C(F)(F)F)cc3)nc2C)ccc1OCC(=O)O
45: CN(C(=O)C1=CC(c2ccc3c(c2)OCO3)=NS(=O)(=O)N1C)c1ccccc1
39: CCc1ccc(O)c(C(=O)c2cnc3cc(-c4ccc(C)cc4)nn3c2)c1

Compound,46,34,30,29,32,47,45,39
PMP22 txn,nt,-6.9%,-11.2%,-27.5%,-4.9%,nt,-6.4%,-18.4%
HTT promoter inh,-19.2%,-23.3%,-3.9%,?,3.98µM*,14.0%,-15.6%,-1.1%

35: CCOC(=O)c1cnc2ccc(Cl)cc2c1Nc1ccc(OCC)cc1
37: Cc1ccc(NC(=O)CCS(=O)(=O)c2ccc(Br)cc2)c(C)c1
33: CCCN1C[C@H](CSC)C[C@@H]2c3cccc4[nH]cc(c34)C[C@H]21
31: Cc1c(NS(C)(=O)=O)cccc1-c1nc2ccccc2s1

Compound,35,37,33,31
PMP22 txn,0.2%,-3.0%,nt,?
HTT promoter inh,-40.2%,-26.5%,-8.0%,?

Next part:
49: Cc1cc(C)n(CCc2nc3c4ccccc4nc(N4CCN(c5ccccc5)CC4)n3n2)n1
50: CC(CNC(=O)CCCn1c(=O)c2cccn2c2ccccc21)c1ccccc1 (configuration not stated)
51: CCOc1ccc(NC(=O)Cn2c(=O)n(-c3cccc(Cl)c3)c(=O)c3c2c2cc(C)ccc2n3C)cc1
52: CCc1ccc(S(=O)(=O)c2nnn3c2nc(NCCNC(C)=O)c2cc(Cl)ccc23)cc1
53: CCOC(=O)c1noc2nc(C)n(CC(=O)NC(C)CC)c(=O)c12 (configuration not stated)
54: CCc1ccc(NC(=O)c2cccc(N3CCCS3(=O)=O)c2)cc1

Compound,49,50,51,52,53,54
PMP22 txn,-2.9%,?,-12.1%,-9.9%,-24.8%,?
HTT promoter inh,-5.8%,-11.5%,-5.9%,-13.0%,-1.7%,-23.1%

55: CCOc1ccc(CNC(=O)Cn2nc(C)n3cccc3c2=O)cc1
56: CCC(=O)Oc1ccc(-c2nc3ccccc3c(=O)o2)cc1
57: Cc1cc(C(F)(F)F)nn1-c1nc(-c2ccccc2)cc(C(F)(F)F)n1
58: COc1ccc(S(=O)(=O)N2CCN(Cc3nc4ccc(C)cc4o3)CC2)cc1OC
59: CCOc1ccc(C(=O)c2cn(Cc3ccccc3OC)c3cc4c(cc3c2=O)OCCO4)cc1
60: O=C(Cc1ccccc1)Nc1sc2c(c1C(=O)Nc1ccccc1Cl)CCC2

Compound,55,56,57,58,59,60
PMP22 txn,6.2%,-4.7%,-10.5%,8.8%,?,-12.2%
HTT promoter inh,8.6%,-8.2%,-28.4%,?,7.0%,-18.9%

Compound activity from PubChem.
